Compound activity from PubChem BioAssay.
CBFb RUNX1 block = qHTS Assay for Compounds Blocking the Interaction Between CBF-beta and RUNX1 for the Treatment of Acute Myeloid Leukemia; 230,000 tested, under 10 active; Potency, µM (top dose mostly 59.8 µM), inactives show top-dose activity, negative = inhibition, actives largely listed as inhibitors; AlphaScreen CBFb-His/RUNX1-biotin binding, biochemical; Runt-related transcription factor 1 (Homo sapiens) + Core-binding factor subunit beta …; note: % of control where 0% means no effect
Target sequence (Q01196 whole entry, looked up): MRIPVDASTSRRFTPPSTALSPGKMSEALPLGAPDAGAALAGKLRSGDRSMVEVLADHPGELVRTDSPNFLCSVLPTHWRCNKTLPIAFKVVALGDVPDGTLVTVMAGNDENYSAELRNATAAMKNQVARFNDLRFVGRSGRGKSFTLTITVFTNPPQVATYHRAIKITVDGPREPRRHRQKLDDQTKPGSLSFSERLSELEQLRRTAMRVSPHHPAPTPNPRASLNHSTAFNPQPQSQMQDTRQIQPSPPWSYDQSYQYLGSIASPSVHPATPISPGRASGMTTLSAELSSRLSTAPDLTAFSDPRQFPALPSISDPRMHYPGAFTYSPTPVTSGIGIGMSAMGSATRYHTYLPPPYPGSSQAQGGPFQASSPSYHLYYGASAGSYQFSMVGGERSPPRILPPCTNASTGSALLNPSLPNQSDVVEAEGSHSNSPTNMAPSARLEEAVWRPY
Target sequence (Q13951 whole entry, looked up): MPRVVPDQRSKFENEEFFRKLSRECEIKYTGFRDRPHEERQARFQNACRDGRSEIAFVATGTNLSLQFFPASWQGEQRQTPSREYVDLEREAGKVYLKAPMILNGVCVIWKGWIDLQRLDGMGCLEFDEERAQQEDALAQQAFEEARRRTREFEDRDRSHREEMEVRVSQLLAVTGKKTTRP
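Proteins preincubated together for 20 min at RT before compound addition; 15 min later, nickel and streptavidin beads were added and left 90 min prior to AlphaScreen measurement.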
Epigenetic reg = Quantitative High-Throughput Screen for Regulators of Epigenetic Control; murine LDR cells, GFP reporter derepression, 30 h; Potency, µM (series often up to 53.9 µM), without a hit: top-dose GFP activation, actives largely listed as activators; hit rate 0.2% among 280,000; AID 1865, 2009; note: potency is the fitted concentration of half-maximal effect; % of control where 0% means no effect; nearly all actives have a fitted effect of over 60% in size
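GFP-positive cell count by laser-scanning cytometry (objects 20–120 um) after 30 h, 37 C compound exposure of murine LDR cells; reporter is CMV-GFP integrated at a silenced locus, inducible by HDAC or DNMT inhibitors.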
KinaseGlo FLuc = Counterscreen for Luciferase (Kinase-Glo TM) Inhibition | hit rate 0.28% among 200,000 | Luciferin 4-monooxygenase (Photuris pensylvanica), Q27757 | Potency, µM (top dose mostly 38.3 µM), for inactives: top-dose activity change, negative = inhibition, most hits filed as inhibitors | Kinase-Glo luciferase, ATP luminescence, 8 min | AID 1379, 2008; note: potency is the fitted concentration of half-maximal effect; % is set by controls: 0 for no effect and ±100 for the full control effect; nearly all actives have a fitted effect of over 60% in size
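Compound is pinned into ATP-containing buffer (10 uM ATP, imidazole pH 7.2, 7 mM MgCl2). Kinase-Glo luciferase reagent is then added. Light output is recorded following an 8-min room-temperature incubation.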
IMPase Li inh = qHTS Assay for Identifying the Cell-Membrane Permeable IMPase Inhibitors: Potentiation with Lithium. CHO-M1 cells, IP1 TR-FRET (IP-One), carbachol + lithium. hit rate 0.35% among 210,000. Potency, µM (titrated, usually from 59.4 µM), without a hit: at the top dose activity, negative = IMPase inhibition, hits mostly inhibitors;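 note: IP1 builds up when IMPase is blocked and the TR-FRET signal falls; potency is the fitted concentration of half-maximal effect; plate controls were basal vehicle for no effect and high inhibitor control for full effect; nearly all actives have a fitted effect of over 50% in size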
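IP1 accumulation measured by competitive TR-FRET in lysed CHO-M1 cells after 30 min compound exposure at 37C, with a small lithium addition to potentiate weak responses. Hill-equation AC50 from ratio and donor-channel data.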
GLA spleen mod = qHTS Assay for Inhibitors and Activators of Human alpha-Galactosidase From Spleen Homogenate | Alpha-galactosidase A (Homo sapiens), P06280 | human spleen homogenate, 4MU-alpha-Gal fluorescence, 40 min | Potency, µM (top dose mostly 80 µM), inactives show top-dose activity change, negative = inhibition, actives largely listed as inhibitors | hit rate 0.008% among 240,000 | AID 2107, 2009;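 note: potency is the fitted concentration of half-maximal effect; 0% = enzyme with vehicle and -100% = no enzyme basal signal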
Target sequence (P06280 32-429 limits assumed): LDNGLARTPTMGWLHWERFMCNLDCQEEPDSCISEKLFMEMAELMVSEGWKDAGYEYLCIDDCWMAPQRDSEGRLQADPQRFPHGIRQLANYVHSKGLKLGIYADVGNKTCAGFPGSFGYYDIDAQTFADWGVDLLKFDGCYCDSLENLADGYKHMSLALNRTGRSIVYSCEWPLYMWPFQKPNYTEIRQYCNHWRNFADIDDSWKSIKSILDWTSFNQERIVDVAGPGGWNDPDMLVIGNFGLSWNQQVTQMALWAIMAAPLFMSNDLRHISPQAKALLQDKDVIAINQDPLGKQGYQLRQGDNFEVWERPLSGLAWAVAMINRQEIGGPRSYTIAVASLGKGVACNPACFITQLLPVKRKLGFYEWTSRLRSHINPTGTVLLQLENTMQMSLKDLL
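Spleen homogenate 1 ug + cpd (titration) + 4-MU-alpha-D-galactopyranoside 1 mM; 37C 40 min; 50 mM citrate/phosphate pH 5.0, 0.01% Tween-20; stop pH 10; fluorescence 365/440; AC50 via Hill.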
LMNA splice mod = qHTS Assay for Modulators of Lamin A Splicing; HeLa LMNA splicing GFP/RFP minigene ratio, 48 h; Potency, µM (top dose mostly 46.1 µM), for inactives: at the top dose ratio change, negative = inhibition, usual class: inhibitors; hit rate 0.01% among 200,000; AID 1487, 2009; active = well fitted inhibition curve with a large enough effect in the signal ratio, with a control signal flat, not every such curve was filed as active; inconclusive = small, poorly fitted or top-dose-only effect, or effect the other way, or a change in a side signal; the % refers to the signal ratio; note: potency is the fitted concentration of half-maximal effect; % is set by controls: 0 for no effect and ±100 for the full control effect
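S3 HeLa stable clones carrying a lamin A-EGFP splicing minigene plus DsRed2 were seeded at 600 cells/well in Opti-MEM with 2% FBS, pin-dosed and incubated 48 h at 37°C. Acumen cytometry (488 nm) gave the GFP/RFP total-intensity ratio.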
An asterisk follows results filed as active; ? = inconclusive; / = no result given; & = joins results of further samples; [ ] = remark or other dose. Unless noted, calls come from the whole dose curve; as a rule, active = well fitted curve in the direction sought with a large enough effect; inconclusive = small, poorly fitted or top-dose-only effect, or another doubt; inactive = no such curve, though single readings can be large; an effect the other way counts as inactive or inconclusive.

SMILES	CBFb RUNX1 block	Epigenetic reg	KinaseGlo FLuc	IMPase Li inh	GLA spleen mod	LMNA splice mod
Cc1ccc(Sc2ccc(NC(=O)c3ccc(S(C)(=O)=O)cc3Cl)cc2)cc1	0%	0.9%	-4%	14µM*	-2%	0%
COC(=O)C1C(O)=C(C=Nc2ccccc2)C(=O)CC1(C)C (centres undefined)	26%	2.0%	-4%	-1%	-1%	1%[46 µM]
Cc1ccc(-n2nnc3ccccc3c2=O)cc1C	5%	-1.0%	-16%	28%[38.3 µM]	11%	-18%
Cc1ccc(OCC(=O)NC(=S)Nc2ccc3c4c(cccc24)CC3)cc1	4%	3.0%	0%	11µM*	6%	-7%
O=C(Nc1ccccc1N1CCN(C(=O)c2ccccc2)CC1)c1ccc(Cl)cc1	3%	-1.5%	3%	9%	-2%	-16%[46 µM]
Fc1ccc(-c2nnn3c2nc(NCc2ccccc2)c2ccccc23)cc1	4%	0.1%&4.4%	/	/	12%	/
COC(=O)C(Cc1ccc(O)cc1)NC(=O)C12CC3CC(CC(C3)C1)C2 (centres undefined)	0%	-1.2%	1%	7%	3%	-5%[46 µM]
CCC1(C)Cc2ccccc2-c2nc(NCCO)n(-c3ccc(C)cc3)c(=O)c21 (centres undefined)	5%	-0.7%	1%	3%[38.3 µM]	27%	6%
CCC(C)(C)n1nnnc1CN(Cc1ccc(Cl)cc1)Cc1ccco1	18%	0.9%	3%	14%	-1%	1%
O=C(CSc1ncnc2c1oc1ccccc12)Nc1ccccc1F	-5%	1.7%	2%	?	0%	4%
CC1CCN(C(=O)C(C)Sc2nc(-c3ccccc3)cc(C(F)(F)F)n2)CC1 (centres undefined)	7%	4.4%&-1.1%	-4%	27%[38.3 µM]	-1%	-9%
CCCNC(=O)CCC(=O)Nc1ncc(-c2ccc(C)cc2)n1C	11%	0.0%	-3%	-9%[38.3 µM]	0%	0%
NC(N)=N/N=C/c1ccc(Cl)cc1Cl	11%	0.1%	/	/	-8%	/
CCOc1cc2[nH]c(=S)n(CCc3ccc(OC)c(OC)c3)c(=O)c2cc1OCC	1%	0.0%	-4%	?	18%	0%
COc1ccc(-n2c3c(cc(C(=O)Nc4cccc(C)n4)c2=O)C(=O)CC(C)(C)C3)cc1	2%	0.0%	-2%	-1%	6%	13%[46 µM]
N#Cc1c(N)nc(N2CCCC2)c(C#N)c1-c1ccc(Cl)cc1	18%	-2.1%	1%	?	-15%	-3%
Cc1ccc(N(C(=O)c2snc(C(N)=O)c2N)C(C(=O)NCCC(C)C)c2ccco2)cc1 (centres undefined)	-1%	-1.1%	-5%	-3%	5%	?
Cc1cccc2c1N(CCOc1ccccc1Cl)C(=O)C2=O	-2%	-1.0%	6%	-6%	5%	-20%
COc1ccc(/C=C2\CCc3c2nc2ccccc2c3C(=O)O)cc1OC	-1%	0.1%	/	/	4%	/
O=C(c1cc2nc(-c3ccco3)cc(C(F)(F)F)n2n1)N1CCCc2ccccc21	14%	-2.2%	-4%	8%[38.3 µM]	2%	-4%
N#Cc1ccc(NC(=O)c2sc3cc(C(F)(F)F)cnc3c2-c2cccs2)cc1	-1%	11%	18%	2%[38.3 µM]	2%	7%
O=C(c1ccco1)N1CCN(c2nc(C3CC3)nc3sc4c(c23)CCCC4)CC1	-12%	1.8%	-3%	11%[38.3 µM]	4%	?
c1ccc(-c2nnc(-c3c[nH]c4ccccc34)nc2-c2ccccc2)cc1	-16%	3.3%	-2%	23%[38.3 µM]	15%	-9%
COc1ccc(N2CC(O)=C(c3nc(-c4ccc(Cl)cc4)cs3)C2=N)cc1	12%	15%	3%	-21%	-10%	?
O=c1c(C=NCC2CCCO2)c(-c2ccccc2)[nH]n1-c1ccc([N+](=O)[O-])cc1 (centres undefined)	2%	-3.7%	/	/	-7%	/
COC(=O)c1ccccc1NC(=O)C1CCCC1	1%	-7.5%	1%	5%[38.3 µM]	1%	3%
Cc1ccc(CNc2ncc(-c3ccc4c(c3)OCO4)n2C)cc1	-4%	-1.8%	0%	5%[38.3 µM]	-5%	5%
COc1cc2c(cc1NC(=O)C(c1ccccc1)c1ccccc1)CCCC2	-2%	0.0%	15%	54%[activator][38.3 µM]	3%	1%
O=C(O)c1ccccc1Sc1ncnc2sc3c(c12)CCC3	-2%	-1.4%	1%	8.9µM*	-8%	-29%[46 µM]
Cc1ccc(C)c(NC(=O)c2ccccc2C(=O)c2ccccc2)c1	-4%	1.1%	-3%	0%	-19%	-14%[46 µM]
Nc1c(-c2ccc(Cl)cc2)cnn1C1CCS(=O)(=O)C1 (centres undefined)	0%	0.0%	20%	25%[38.3 µM]	-2%	-7%
CC(=O)C1=C(O)C(=O)N(CCC(=O)O)C1c1cccc(F)c1 (centres undefined)	-9%	-1.0%	-2%	11%[38.3 µM]	-4%	0%
COc1ccc(C(=O)CSc2nnc(-c3ccc(S(=O)(=O)N4CCOCC4)cc3)o2)cc1	9%	0.7%	-1%	?	0%	2%
COc1ccc(OC)c(C(c2nnnn2C2CCCC2)N2CCc3ccccc3C2)c1 (centres undefined)	0%	-1.0%	-2%	25%[38.3 µM]	5%	?
Cc1cc(C)nc(-n2nc(C)cc2NC(=O)c2cccc(S(=O)(=O)N3CCCCC3)c2)n1	0%	3.1%	8%	9%[38.3 µM]	-4%	-3%
Cc1ccc(-n2ncc3c(N4CCCC(C)C4)ncnc32)c(C)c1 (centres undefined)	11%	0.0%	/	/	2%	/
CCOc1ccc(-c2nnc(SCC(=O)Nc3ccc4c(c3)c3ccccc3n4CC)n2N)cc1	-3%	13%	6%	?	0%	-1%
CCC(C)(C)C1CCC(=NNC(=S)Nc2cccnc2)CC1 (centres undefined)	-6%	-1.5%	-1%	12%	-5%	?
COc1cccc(C(=O)Nc2cccc(OC(C)=O)c2)c1	2%	-1.1%	-27%	10%[38.3 µM]	1%	20%
Cc1ccc(-c2cnc(NC(=O)CCC(=O)N3CCCCC3)n2C)cc1	-9%	1.4%	-7%	-17%[38.3 µM]	-6%	6%
CCc1nc(OCC(=O)c2ccccc2)c(C#N)c2c1COC(C)(C)C2	7%	3.0%	15%	11%[38.3 µM]	-23%	-4%
Cc1ccc(OCc2nnc(SCC(=O)Nc3ccc4c(c3)OCCO4)n2Cc2ccco2)cc1	-13%	-5.4%	-1%	13%[38.3 µM]	17%	11%
Cc1cc(S(=O)(=O)Nc2ccc3ccccc3c2)c(C)s1	5%	-1.0%	-4%	28%[38.3 µM]	-2%	?
FC(F)(F)c1nc2ccccc2n2c(-c3ccc(Cl)cc3)nnc12	-7%	1.0%	-1%	4%[38.3 µM]	10%	?
COC(=O)c1cccc(NC(=O)NC2CCCN2S(=O)(=O)c2ccc(Cl)cc2)c1 (centres undefined)	4%	-1.1%	3%	19%[38.3 µM]	-5%	-1%
CCC(NC(=O)c1cccc(Cn2cc([N+](=O)[O-])cn2)c1)c1ccc(C(C)C)cc1 (centres undefined)	-13%	-1.1%	-4%	41%[activator][38.3 µM]	4%	-7%
C[C@]12C[C@H](O)C3[C@@H](CCC4=CC(=O)CC[C@@]43C)[C@@H]1CC[C@@H]2C(=O)CO (some centres undefined)	15%	1.1%	-7%	2%	1%	?
COc1ccc(C(=O)Cn2c(C(=O)/C=C/c3ccccc3)nc3ccccc32)cc1	6%	?	-3%	?	-2%	?
Cc1nonc1OCC(C)(COc1nonc1C)NC(=O)c1ccccc1	-9%	2.5%	-1%	5%	7%	-7%
O=S(=O)(Nc1cccnc1)c1ccc2c(c1)OCCO2	8%	0.0%	2%	3%	1%	-5%
COC(=O)COc1cccc(NC(=O)c2cccc(C)c2)c1	1%	-3.1%	1%	0%	8%	/
COc1ccc(C(=O)Nc2cccnc2)cc1	6%	0.7%	1%	5%[38.3 µM]	-4%	-8%
Cc1cc(Cl)ccc1OC(C)C(=O)N1CCCN(C(=O)C(C)Oc2ccc(Cl)cc2C)CC1 (centres undefined)	2%	0.4%	3%	11%[38.3 µM]	-6%	?
O=C(CSc1nnc(COc2ccc(Cl)cc2)o1)N1CCOCC1	-11%	-7.0%	4%	-5%	2%	/
CCc1cc(C(c2ccccn2)N2CCN(C)CC2)c(NC(=O)c2ccccc2)s1 (centres undefined)	-10%	0.0%	4%	6%	2%	-16%
Cc1nc2ccccc2c2oc(C(=O)Nc3ccc4c(c3)OCCO4)cc12	-13%	8.1%	-1%	1%[38.3 µM]	-6%	-11%
CCCCn1c(N)c(-c2nc3ccccc3s2)c2c([N+](=O)[O-])nn(C)c(=O)c21	-5%	0.0%	-4%	44%[activator][38.3 µM]	3%	15%
CCOC(=O)c1cc(C(=O)NN)c(=O)[nH]c1C	11%	-2.6%	/	/	14%	/
COC(=O)Cn1c(=NC(=O)c2ccc(OC)c(OC)c2)sc2cc(OC)ccc21	-4%	-1.3%	-1%	8.9µM*	11%	5%
O=C1C2C(c3ccccc3)CC=CC2[C@H](c2ccc(C(F)(F)F)cc2)N1Cc1ccccc1 (some centres undefined)	16%	-1.6%	/	/	-2%	/
Clc1cccc(-c2cc3nc4c(c(N5CCNCC5)n3n2)CCCC4)c1	-1%	-1.9%	1%	2%	-2%	-5%
CN(Cc1ccccc1)C(=O)CCSc1nc(-c2ccc3c(c2)OCO3)cc(C(F)(F)F)n1	?	2.4%	-1%	8%	12%	?
C/C(=N\NC(=S)Nc1ccccc1)C1Cc2ccccc2C(=O)O1 (centres undefined)	5%	?	/	/	-5%	/

Single records, from the list above. Order of screens: CBFb RUNX1 block	Epigenetic reg	KinaseGlo FLuc	IMPase Li inh	GLA spleen mod	LMNA splice mod
`COC(=O)Cn1c(=NC(=O)c2ccc(OC)c(OC)c2)sc2cc(OC)ccc21` is entered as -4%	-1.3%	-1%	8.9µM*	11%	5%
`CN(Cc1ccccc1)C(=O)CCSc1nc(-c2ccc3c(c2)OCO3)cc(C(F)(F)F)n1` is entered as ?	2.4%	-1%	8%	12%	?
`O=S(=O)(Nc1cccnc1)c1ccc2c(c1)OCCO2` is entered as 8%	0.0%	2%	3%	1%	-5%
`Cc1nonc1OCC(C)(COc1nonc1C)NC(=O)c1ccccc1` is entered as -9%	2.5%	-1%	5%	7%	-7%
`CCOC(=O)c1cc(C(=O)NN)c(=O)[nH]c1C` is entered as 11%	-2.6%	/	/	14%	/

This is a subset (hit frequency here may not be typical).
